Source: PubChem (several laboratories)
Calb FLC = C. albicans growth modulation with fluconazole. C. albicans CaCi-2 (fluconazole-resistant clinical isolate) + fluconazole, Alamar Blue growth, 48 h. hit rate 0.57% among 300,000. growth inhibition, % (test concentration not listed). AID 1979;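 active means most replicates above 75%; inconclusive means exactly half above 75%; inactive means most below 75%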;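 further: all wells also contain fluconazole at 8 µg/ml as a sub-toxic cotreatment; 0% = median of DMSO wells and 100% = median of geldanamycin control wells; wells of about 8 µL received 7.5 nL stock; the first replicate is given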
Beta apoptosis = blocks beta cell apoptosis. INS-1E cytokine-induced death, ATP luminescence, 48 h; percent of positive-control rescue, neutral wells zero. protection from apoptosis, % (concentration not given with the values). hit rate 0.8% among 300,000. AID 435005;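 active means all replicates at 75% or more, or half of them and the mean; inconclusive means half reach 75% but not the mean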;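 further: 0% = cytokine-treated negative control wells and 100% = positive control rescue; higher means more ATP so stronger rescue from cytokine killing; wells of about 40 µL received 100 nL stock; the first replicate is given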
T cruzi repl = T. cruzi replication inhibition; T. cruzi beta-gal in NIH3T3, luminescence, 90 h; inhibition, % (test concentration not listed); hit rate 1.4% among 300,000;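 active means mean inhibition across valid replicates above about 55%, limit read from the data; inconclusive means mean below that limit but half or more replicates reach it; inactive means mean below it, under half of replicates reach it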;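 further: signal also drops with host cell toxicity which is not excluded here; 0% = plate median of DMSO wells and 100% = zero luminescence signal; higher percent means less beta-gal luminescence so fewer parasites; stock transfer was 50 nL into about 50 µL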
Ecoli rRNA inh = selective bacterial rRNA inhibition in E. coli | AID 720706 | E. coli WT GFP vs humanized-ribosome RFP mutants, fluorescence, 24 h; active compounds read low; DMSO median 0, no signal -100 | hit rate 1.6% among 350,000 | GFP signal change (wild-type ribosome), % (no concentration beside the values);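 active means significant combined selectivity score with lowered wild-type GFP, culture density cut under 30%, mutant RFP and density less affected; inactive means any of these conditions unmet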; further: one replicate is shown; some compounds called inactive have numbers as strong as hits
AF4-AF9 inh = blocks AF4 peptide binding to human AF9; AlphaScreen, biotin-AF4 peptide binding to FLAG-AF9; AID 651704; hit rate 0.47% among 350,000; inhibition, % at 10 µM;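 active means every replicate reaching a set inhibition limit, whatever the replicate mean, cut at about 25% in these data; inconclusive means mean inhibition reaches that limit but some replicates miss it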;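 further: 0% = plate neutral control median and 100% = total signal loss; the record names both 10 and 1 µM as test concentration; the first replicate is given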
Target sequence (P42568 whole entry, looked up): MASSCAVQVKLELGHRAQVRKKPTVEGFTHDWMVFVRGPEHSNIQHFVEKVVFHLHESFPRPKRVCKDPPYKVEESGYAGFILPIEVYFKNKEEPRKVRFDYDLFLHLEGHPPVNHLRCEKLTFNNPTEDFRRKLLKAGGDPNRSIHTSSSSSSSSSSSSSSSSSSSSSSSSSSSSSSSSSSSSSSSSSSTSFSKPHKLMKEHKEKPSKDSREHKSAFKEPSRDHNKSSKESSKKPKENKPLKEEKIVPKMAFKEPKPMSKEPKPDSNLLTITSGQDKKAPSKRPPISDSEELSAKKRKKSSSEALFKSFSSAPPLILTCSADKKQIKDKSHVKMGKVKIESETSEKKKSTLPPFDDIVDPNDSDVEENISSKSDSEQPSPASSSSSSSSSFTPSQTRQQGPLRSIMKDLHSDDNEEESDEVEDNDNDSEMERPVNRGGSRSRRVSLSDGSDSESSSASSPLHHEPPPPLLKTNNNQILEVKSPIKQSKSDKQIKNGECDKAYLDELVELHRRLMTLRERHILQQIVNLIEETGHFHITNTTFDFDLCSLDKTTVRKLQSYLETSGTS
RanGTP-Impb inh = inhibitors of RanGTP-importin-beta interaction, primary screen, biochemical, FRET, CFP-Ran, YFP-importin-beta, homogeneous; cell-free CFP-Ran/YFP-importin-beta FRET ratio; inhibition, % (concentration not given with the values); hit rate 1.1% among 300,000; AID 2216;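 active means most replicates above 15%; inconclusive means exactly half above 15%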;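 further: 0% = DMSO wells and 100% = Ran loaded with GDP instead of GTP; wells of about 40 µL received 100 nL stock; the first replicate is given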
Vif TR-FRET = HIV-1 Vif–A3G interaction blockers – biochemical, TR-FRET, GST-Vif 1-94, biotin-A3G peptide, dose response retest, primary screen (AID 1117319); TR-FRET GST-Vif / biotin-A3G peptide binding; higher % means a stronger effect; test concentration not given here; strong numbers were not always called active; one-dose inhibition, %; IC50 in µM for titrated hits; hit rate 0.57% among 260,000;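 active means above the screen mean plus three standard deviations and confirmed in dose response; inconclusive means results disagree or hit not tested in dose response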;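 further: Vif residues 1-94 fused to GST binding biotinylated APOBEC3G peptide 110-148; 0% = full assay without inhibitor and 100% = GST in place of GST-Vif; retest series ran down from 100 µM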
A1 inh = inhibitors of the anti-apoptotic protein A1, read as caspase activation; hit rate 0.066% among 330,000; AID 2462; caspase activation, % (concentration not given with the values); MEF A1-2A-BIM cells, Caspase-Glo 3/7 luminescence, 3 h; percent of clofoctol response, vehicle zero;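 active means over half of replicate activation scores above 10%, or exactly half above 10 with the replicate mean above 10; inconclusive means replicate mean below 10 yet half the replicates above 10; inactive means over half of replicates below 10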;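 further: wells of about 30 µL received 50 nL stock; many hits fall short of the cut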
Ecoli rRNA inh OD600 = also measured in Ecoli rRNA inh; calls as there; OD600 change, %; measured here: OD600 growth;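 optical density of the mix in the first replicate; 0 = DMSO median and -100 = no signal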
Ecoli rRNA inh RFP = also measured in Ecoli rRNA inh; calls as there; RFP signal change, %; measured here: RFP humanized mutant strains;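 first replicate; 0 = DMSO median and -100 = no signal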
Starred values were filed as active, the others as inactive; ? = inconclusive; . = no result given; & = joins results of further samples. Not all compounds are listed. The share of hits here may be higher or lower than overall.

SMILES | Calb FLC | Beta apoptosis | T cruzi repl | Ecoli rRNA inh | Ecoli rRNA inh OD600 | Ecoli rRNA inh RFP | AF4-AF9 inh | RanGTP-Impb inh | Vif TR-FRET | A1 inh
Cc1cccc[n+]1C1C(c2ccc([N+](=O)[O-])cc2)C(C#N)=C(C(=C=[N-])C#N)NC1(O)C1CC1 (stereo not given) | -10 | 2 | 6 | 9 | 3 | 54 | -1.4 | -2.4 | . | -0.1
CC1(C)Cc2nc3sc(C(=O)NCCCO)c(N)c3cc2CO1 | 6 | -3 | -6 | 4 | 1 | 0.4 | -3.4 | -0.3 | -16% | -0.8
Cc1cc2ccccc2n1CCNC(=O)Cc1cccc2ccccc12 | -3 | 10 | 31 | -5 | 3 | 34 | -1.4 | 3.6 | -50% | 0.5
CCCCn1c(=O)[nH]c(=O)c2c1nc(-c1ccc(OCCC)c(OCC)c1)n2C | -4 | 3 | 2 | 9 | 4 | -5.3 | 7.4 | 0.0 | -5% | -1.0
N#CCCn1c(SCC(=O)N2CCN(S(=O)(=O)c3ccccc3)CC2)nc2ccccc21 | 1 | -1 | -1 | . | . | . | . | 0.3 | -3% | 0.0
COc1cc(CN2CCc3c([nH]c4ccccc34)C2)cc(OC)c1 | -4 | 1 | 17 | 1 | 6 | 2.8 | 5.6 | -7.9 | . | 0.3
CCOC(=O)C1=C(COC(=O)[C@H](C)NS(=O)(=O)c2ccccc2F)NC(=O)NC1C (stereo not given in full) | . | 3 | . | 2 | 2 | 3.6 | -2.3 | . | 3% | 0.3
Cc1oc(-c2cccs2)nc1CN1CCN(CCC(C)C)C(CCO)C1 (stereo not given) | 0 | 0 | 12 | 15 | 8 | -0.7 | -3.3 | -3.9 | . | ?
COC(=O)c1sccc1NC(=O)c1ccc(C(C)C)cc1 | -9 | -3 | 1 | -17 | -10 | -2.7 | -4.8 | ? | 3% | 0.8
Cc1ccc(SC/C(O)=C(\C#N)c2nc3ccccc3s2)cc1 | 88* | -10 | -23 | . | . | . | . | -5.9 | 0% | -1.1
COc1ccccc1Nc1nc(N)nc(-c2oc3ccccc3c2C)n1 | ? | 0 | 7 | . | . | . | . | 5.0 | 2% | -0.7
O=C(O)c1ccc(NC(=O)c2ccccc2NC(=O)c2ccccc2Cl)cc1 | 6 | -3 | 2 | 3 | -2 | -2.0 | -1.2 | 2.1 | . | -0.1
Cc1ccc(-n2c(-c3nn(C)c(C)c3Cl)n[nH]c2=S)cc1 | -3 | 1 | -3 | . | . | . | . | -0.6 | -2% | -0.1
CCCCC1(Cc2cccc([N+](=O)[O-])c2)C(=O)N(c2ccccc2)N(c2ccccc2)C1=O | 55 | 7 | 39 | . | . | . | . | 3.1 | -8%&-4% | 0.6
CS/C(=N\S(=O)(=O)c1ccc(N)cc1)NS(=O)(=O)c1cccs1 | -30 | 1 | -9 | . | . | . | . | 4.1 | 5% | -0.1
COc1ccc(C2CC(c3cccs3)=NN2C(=O)CSc2nc(=O)n3ccccc3n2)cc1 (stereo not given) | -2 | -3 | 21 | -4 | -4 | 5.9 | 5.5 | 1.5 | 3% | 0.5
Cc1cc(C)cc(N2CN=c3s/c(=C\c4ccco4)c(=O)n3C2)c1 | -10 | 6 | -5 | 7 | 7 | 1.8 | -23 | -0.3 | 4% | -0.2
O=C(CCCN=C1NS(=O)(=O)c2ccccc21)OCC(=O)c1ccccc1Cl | 2 | -3 | 2 | -2 | -12 | 1.7 | 5.4 | 0.8 | . | 0.6
CC(C)(CN1CCN(c2ccccc2)CC1)NS(=O)(=O)c1ccccc1 | -5 | 11 | 13 | -7 | -5 | -0.9 | 3.9 | -3.5 | -2% | 0.1
Cc1cc(C)cc(SCc2noc(C(=O)NCC3CC3)c2C(=O)NCC2CC2)c1 | -1 | 1 | 2 | 14 | 10 | -0.2 | -1.1 | -1.8 | . | 0.8
CCN(CC(=O)Nc1c(F)cccc1F)C(=O)Cc1c[nH]c2ccccc12 | . | 5 | . | 0 | 1 | -1.9 | 8.0 | . | . | -0.5
CC1CC(C(F)(F)C(F)(F)F)n2nc(C(=O)O)cc2N1 (stereo not given) | 0 | -3 | -18 | . | . | . | . | 4.3 | ? | 0.7
CCCN1CCCc2cc(CN)ccc21 | 17 | 98* | 89* | . | . | . | . | 1.4 | ? | -1.4
Cc1cc(C)n2nc(SCc3c(F)cccc3Cl)nc2n1 | 2 | -1 | 7 | -11 | -9 | -1.0 | -3.7 | 5.4 | 4% | 0.3
Cc1ccc(-c2cc(C(F)F)n3ncc(C(=O)Nc4c(C)nn(Cc5ccccc5Cl)c4C)c3n2)cc1 | 4 | 20 | 4 | . | . | . | . | 2.1 | -4% | 0.9
C=CC[N+]1(CC(=O)NCc2ccc(NC(C)=O)cc2)CCOCC1 | 1 | -10 | -5 | 11 | 11 | -5.1 | -2.3 | 7.2 | -8% | 0.3
CCCCN(C(=O)c1oc2ccc(OCC)cc2c1C)c1c(N)n(CCCC)c(=O)[nH]c1=O | 5 | 1 | -11 | 11 | 2 | -1.9 | -0.3 | 3.4 | . | 0.2
Cc1ccccc1CSc1ncnc2ccccc12 | -10 | 6 | -13 | -34 | -50 | -14 | -1.7 | 4.7 | -12% | -0.5
CCc1nc2sc3c(c2c(=O)n1NC(=O)CCl)CCCC3 | 19 | -1 | 6 | . | . | . | . | 5.4 | 5% | 0.2
O=C(NNC(=O)c1cccnc1)Nc1ccc([N+](=O)[O-])cc1 | -6 | -2 | -6 | . | . | . | . | 0.4 | 64% | 0.5
O=C(CN1CCN(C(=O)c2cccc(F)c2)CC1)NC1CCCCC1 | -1 | . | -14 | . | . | . | . | -3.1 | -6% | 0.1
COc1cc(/C=C(\C#N)C(=O)NC(C)C)ccc1OCc1ccc(C(=O)O)cc1 | -1 | -4 | -8 | -14 | -11 | 14 | ? | -2.6 | 23% | 0.4
CS(=O)(=O)N(CC(=O)Nc1ccc2c(c1)OCO2)Cc1ccccc1 | -13 | -5 | 15 | . | . | . | . | ? | 95µM* | -0.3
COc1ccc(-c2c(C)nn3c(N4CCC(C(=O)NCCN(C)C)CC4)cc(C)nc23)cc1OC | -15 | 0 | -2 | . | . | . | . | 0.9 | 5% | 1.5
CN1CC(c2ccccc2)C2(COc3ccccc3C2=O)C12C(=O)Nc1ccccc12 (stereo not given) | -15 | -10 | -3 | . | . | . | . | 3.2 | ? | 1.0
O=C(c1c[nH]c(C(=O)N2CCN(Cc3ccccc3)CC2)c1)C1CCCCC1 | 11 | -2 | -7 | -6 | -4 | 1.7 | -1.1 | -1.0 | -3% | 1.1
O=C(O)c1ccc2nc(-c3ccccc3)sc2c1 | -6 | -6 | 7 | . | . | . | . | -1.9 | -3% | -8.9
O=C(Nc1ccc2c(c1)OCCO2)NC1(C(F)(F)F)Oc2ccccc2O1 | -8 | -3 | -7 | -1 | -2 | -4.0 | -0.1 | -1.1 | ? | 0.7
CCCN1CCC(=O)N(CCN=[N+]=[N-])CC1 | -7 | -10 | -10 | 9 | 4 | -1.6 | -2.6 | -1.1 | . | -0.3
O=C(NC1CCCc2ccccc21)N[C@@H](Cc1ccccc1)C(=O)O (stereo not given in full) | 1 | 0 | -9 | -55 | -77 | -18 | -1.3 | -0.1 | -5% | 0.4
Cc1ccc(CNCCNCCO)s1 | 2 | -3 | -5 | -2 | -8 | 0.8 | 0.3 | -1.1 | -10% | -1.2
O=C(NCCCN1CCOCC1)c1cnn2c(-c3ccccc3)cc(-c3ccccc3)nc12 | 20 | 12 | 15 | . | . | . | . | 8.1 | -4% | -0.2
COc1ccc(OC)c(N(CC(N)=O)S(=O)(=O)c2ccc(OC)c(OC)c2)c1 | 7 | -5 | -5 | . | . | . | . | 0.6 | 4% | 0.1
CCCCCNC(=O)Cc1ccc(S(=O)(=O)N2CCOCC2)s1 | 4 | -2 | -5 | 5 | 4 | -1.0 | 0.6 | -3.1 | -8% | -1.1
O=C1/C(=C/c2ccccc2F)SC(=S)N1CC(=O)N1CCCCC1c1cccnc1 (stereo not given) | -14 | -47 | 18 | -18 | -21 | -2.0 | -1.5 | -0.1 | 2% | -0.1
Fc1ccc(Cn2c(-c3cscn3)nc3ccccc32)c(Cl)c1 | -2 | . | 10 | . | . | . | . | 4.9 | -15% | 0.9
Cc1ccc(-c2c3c(nc4sc(C(N)=O)c(N)c24)CCCC3)o1 | 38 | -4 | -16 | 3 | -7 | 16 | 2.8 | 4.3 | -4% | -0.6
O=C(NCCC1CCCCN1S(=O)(=O)c1ccccc1)C(=O)NCc1ccccn1 (stereo not given) | -2 | . | 1 | 1 | 0 | -1.8 | -0.2 | -1.0 | . | 0.7
CC1=CCC(C(=O)O)(C(=O)N/N=C/c2cccs2)C(c2ccc([N+](=O)[O-])cc2)C1 (stereo not given) | -3 | 38 | -2 | . | . | . | . | -1.4 | ? | 0.0
CC(=O)c1cc(C)ccc1OC(=O)c1ccncc1 | 14 | -3 | -11 | 8 | 6 | -3.0 | -2.3 | -2.8 | . | -0.3
CC1CCc2sc(C(=O)NCc3ccccn3)cc2C1 (stereo not given) | -13 | -5 | 3 | -6 | -9 | -2.6 | -0.1 | 1.8 | 6% | -0.3
COCCCNC(=O)C1CCCCN1S(=O)(=O)c1ccc(F)cc1 (stereo not given) | -10 | -1 | -17 | . | . | . | . | -5.0 | 4% | 1.1
O=C(Cc1ccc(Cl)cc1)Nc1ccc(-c2cc3ccccc3oc2=O)c(Cl)c1 | -12 | 25 | 53 | . | . | . | . | -0.1 | -2% | 1.6
CN1C2=CC=CC=CC2=[N+](C)C12C([N+](=O)[O-])=CC(=[N+]([O-])[O-])C=C2[N+](=O)[O-] (stereo not given) | -2 | 0 | 40 | 1 | 10 | -1.1 | 2.8 | -5.8 | 18% | 0.1
CCCCOCCCn1c(-c2ccco2)nc2nc3ccccc3nc21 | 7 | -10 | . | . | . | . | . | 4.6 | ? | 1.6
CCCCOc1ccc(C(=O)N2CCNC(=O)C2CC(=O)OC(C)C)cc1 (stereo not given) | 4 | 2 | -5 | 9 | 17 | 4.6 | 2.6 | 4.9 | . | 0.2
COc1ccc(C(=O)NCc2n[nH]c(=S)n2-c2ccccc2)cc1OC | -2 | -5 | -28 | . | . | . | . | 5.0 | 8% | 1.4
CC(C)(C)c1ccccc1NC(=O)NC1CCN(Cc2c(F)cccc2Cl)CC1 | -2 | -5 | 9 | . | . | . | -0.2 | 0.5 | 31% | 0.1
CC(=O)Nn1c(COc2ccccc2C)nc2ccccc2c1=O | 5 | 0 | -11 | . | . | . | . | 1.5 | 7% | 0.5
